# KCNQ2 pot: potentiators of rat KCNQ2 potassium channel | O88943 | CHO-K1 KCNQ2, FluxOR thallium flux fluorescence; active compounds read high | B-score at 10 µM | 310,000 tested, 0.54% active;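 active = fluorescence ratio B-score at least 3 SD of library B-scores, with initial fluorescence B-score within 3 SD, cut at about 5.3 in these data; same plate scores as AID 2156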;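 also: B-score of peak minus minimum over baseline fluorescence ratio after K+ and Tl+ stimulus; positive B-score means potentiation of KCNQ2 with more thallium influx and brighter signal; only the inactives scoring about 0 or higher are listed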
# Target sequence (O88943 whole entry, looked up): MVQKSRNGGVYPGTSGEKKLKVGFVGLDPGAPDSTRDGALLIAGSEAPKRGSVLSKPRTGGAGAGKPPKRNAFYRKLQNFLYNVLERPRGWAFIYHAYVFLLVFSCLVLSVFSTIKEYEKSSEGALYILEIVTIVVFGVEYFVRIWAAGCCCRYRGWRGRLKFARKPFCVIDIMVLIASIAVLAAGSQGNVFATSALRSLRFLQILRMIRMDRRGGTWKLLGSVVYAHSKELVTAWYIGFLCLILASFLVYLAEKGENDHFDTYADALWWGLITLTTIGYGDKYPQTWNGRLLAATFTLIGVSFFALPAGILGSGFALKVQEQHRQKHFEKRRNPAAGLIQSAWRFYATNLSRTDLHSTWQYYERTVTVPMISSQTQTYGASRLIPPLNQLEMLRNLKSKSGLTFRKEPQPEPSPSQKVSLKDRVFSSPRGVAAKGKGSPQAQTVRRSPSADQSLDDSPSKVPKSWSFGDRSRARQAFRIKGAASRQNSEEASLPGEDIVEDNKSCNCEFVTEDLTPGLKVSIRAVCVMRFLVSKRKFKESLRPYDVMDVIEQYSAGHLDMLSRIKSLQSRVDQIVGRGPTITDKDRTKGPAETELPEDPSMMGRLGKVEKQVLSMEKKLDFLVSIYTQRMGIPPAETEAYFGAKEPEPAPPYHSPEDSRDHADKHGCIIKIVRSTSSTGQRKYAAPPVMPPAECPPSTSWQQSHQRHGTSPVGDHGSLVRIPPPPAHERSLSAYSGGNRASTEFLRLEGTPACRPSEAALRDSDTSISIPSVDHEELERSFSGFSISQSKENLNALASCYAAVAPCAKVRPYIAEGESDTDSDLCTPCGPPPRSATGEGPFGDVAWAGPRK
# KCNQ2 pot baseline: second read-out of KCNQ2 pot, no call of its own (marks repeat the call); B-score; compound at 10 µM; measured here: initial fluorescence intensity artifact check;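 brightness before thallium and not channel activity; 0 = typical well and far values either way flag optical interference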
# Starred values were filed as active, the others as inactive.
Compound,KCNQ2 pot,KCNQ2 pot baseline
O=C(NCc1cccs1)NC1CCCCC1,3.9,-0.7
CCOCCCNC(=O)Cn1ncc2c(=O)oc3ccccc3c21,1.1,0.48
CC1CCCCC12NC(=O)N(CC(=O)c1ccc3c(c1)OCO3)C2=O (stereo not given),0.01,0.38
O=[N+]([O-])c1cccc(NC(=S)Nc2nc(-c3ccccc3Cl)cs2)c1,4.3,1.1
Nc1ccc(S(=O)(=O)Nc2nccc(/C=C/c3ccccc3F)n2)cc1,0.92,0.49
O=Cc1cn(CC(O)CN2CCCCC2)c2ccccc12 (stereo not given),1.2,0.93
O=C(O)CC(Cc1ccccc1)(C(=O)O)c1ccccc1 (stereo not given),1.2,2
CCCC(O)(c1ccc(Cl)cc1)C(CN1CCOCC1)c1ccc(Cl)cc1 (stereo not given),1.6,-0.7
CC(C)Cn1c(C23CC4CC(CC(C4)C2)C3)n[nH]c1=S,0.59,0.5
CCC(C)NS(=O)(=O)c1ccc(NC(=O)C2CCCO2)cc1 (stereo not given),1.2,0.26
CN(C)CCCNCCCNC(=O)/C=N/O,0.07,1.7
CCn1c(N)c(C(=O)NCCOC)sc1=S,0.6,0.76
NC(=O)c1ccc(NC(=O)CS(=O)(=O)c2cn(CC(=O)N3CCCC3)c3ccccc23)cc1,0.85,-0.24
CSc1nsc(SC)c1C(=O)OCC(F)(F)F,0.63,0.79
Cc1ccc(-c2cc(C(=O)Nc3cnn(C(C)C)c3)no2)cc1,0.45,-0.45
O=C(Cc1cccs1)Nc1ccc(Cl)cc1,3.6,-0.09
O=S(=O)(c1ccccc1F)N1CCN(CCc2ccccc2)CC1,0.33,0.01
COc1cccc(NS(=O)(=O)c2ccc3c(c2)C2C=CCC2C(c2ccc(C(=O)O)cc2)N3)c1 (stereo not given),1,-0.04
C(/C=C/c1ccco1)=N/N1CCN(c2ccccc2)CC1,2.4,0.66
O=C(NCc1ccc2c(c1)OCO2)c1cc2ccccc2oc1=O,1.7,0.89
Clc1ccc(CNC2CCCC2)c(Cl)c1,0.49,0.5
CN1CCN(c2ccc(NC(=O)CSc3nnnn3-c3ccccc3F)cc2)CC1,0.06,0.57
CCCC(=O)NC(=S)Nc1ccc(CN2CCOCC2)cc1,0.89,-0.63
CCC(=O)Nc1nnc(S(=O)(=O)N2CCCC2)s1,0.56,0.19
CC1CCCC(C)N1CCCNC(=O)c1ccc2nc(N3CCOCC3)sc2c1 (stereo not given),0.47,1.4
CC(C)[C@H](NC(=O)c1ccc(F)cc1)C(=O)OCC(=O)NC(=O)c1cccn1C,1.5,0.9
O=C(CN1CCN(c2ccccn2)CC1)Nc1cccc(S(=O)(=O)N2CCCC2)c1,1.1,0
C=CCOc1cccc(/C=N/NC(=O)CN2CCCCC2)c1,0.59,-2.6
Cc1ccccc1S(=O)Cc1ccc(C(=O)N2CCN(C(=O)c3ccco3)CC2)o1 (stereo not given),1.1,0.54
CCn1c(CNC(=O)c2ccco2)nnc1SCC(=O)c1ccccc1,1.1,-0.05

# The list goes on, starting with the last six of the part before.
Compound,KCNQ2 pot,KCNQ2 pot baseline
CC1CCCC(C)N1CCCNC(=O)c1ccc2nc(N3CCOCC3)sc2c1 (stereo not given),0.47,1.4
CC(C)[C@H](NC(=O)c1ccc(F)cc1)C(=O)OCC(=O)NC(=O)c1cccn1C,1.5,0.9
O=C(CN1CCN(c2ccccn2)CC1)Nc1cccc(S(=O)(=O)N2CCCC2)c1,1.1,0
C=CCOc1cccc(/C=N/NC(=O)CN2CCCCC2)c1,0.59,-2.6
Cc1ccccc1S(=O)Cc1ccc(C(=O)N2CCN(C(=O)c3ccco3)CC2)o1 (stereo not given),1.1,0.54
CCn1c(CNC(=O)c2ccco2)nnc1SCC(=O)c1ccccc1,1.1,-0.05
COc1cccc(C2=NOC(C(=O)Nc3cccc(C(C)=O)c3)C2)c1OC (stereo not given),1.2,0.23
O=C(Nc1cccc2ccccc12)N1CCN(c2ncccn2)CC1,0.28,-2
COc1ccc(CCNC(=O)C(C)c2ccc([N+](=O)[O-])cc2)cc1 (stereo not given),0.44,-3.1
CC(=O)Nc1ccc(NC(=O)COc2ccc3c(c2)CCC3)cc1,1.1,-0.03
c1ccc(-c2csc(-c3ccncc3)n2)cc1,1,-2.2
COc1ccc(OC)c(C(=O)NC(CC(N)=O)c2ccc(NCc3ccccn3)c([N+](=O)[O-])c2)c1 (stereo not given),0.57,-0.96
C/C(=N\Nc1ccc([N+](=O)[O-])cc1)c1ccc2c(c1)OCO2,0.23,0.85
CCCCNC(=O)CNC(=S)N(Cc1cc(OC)c(OC)c(OC)c1)C1CCCC1,0.74,-0.12
COc1cccc(C(=O)NNC(=O)C(=O)Nc2ccc(C)c(Cl)c2)c1,4.9,-1.6
OCC(CO)(CO)NC(=S)Nc1cc(Cl)cc(Cl)c1,1.6,-0.07
CC(SCc1nc2sc3c(c2c(=O)[nH]1)CCCC3)C(=O)Nc1ccccn1 (stereo not given),0.71,0.14
C=C(C)c1ccc(C(C)(C)NC(=O)NCc2ccco2)cc1,1.4,-0.57
C=CCNC(NC(=O)c1ccccc1)(C(=O)OCC)C(F)(F)F (stereo not given),0.92,0.84
O=C(CSc1nnc2n1CCCN2)c1ccc(Cl)cc1,0.24,-3.8
CCCOc1ccc(N2CC(C(=O)Nc3ccccc3F)CC2=O)cc1 (stereo not given),0.52,-0.37
Cc1cccc(Nc2nc(-c3cccs3)cs2)n1,0.85,-0.17
COc1cc2c(cc1OC)CN(c1nc(CN3CCCC3)nc3sc(C)c(C)c13)CC2,3.1,-0.06
Cc1nn(CC(=O)Nc2ccc(C(=O)N(C)C)cc2)c(=O)c2ccccc12,0.32,0.56
COc1ccc(-n2nnnc2SCC(=O)c2ccc(O)c(O)c2)cc1,3.3,-2.8
COc1ccc2c(=O)c(-c3ccccc3)c(C)oc2c1,0.15,-0.79
C=CCn1cc(C(=O)N2CCN(c3ccccc3)CC2)c(=O)c2cc(S(=O)(=O)N3CCCC3)ccc21,0.89,-2
CN1Cc2c(N3CCOCC3)nc3sc(C#N)c(N)c3c2CC1(C)C,0.32,3.2
COCCNC(=O)C(OC(=O)c1ccco1)c1ccccc1Cl (stereo not given),2.1,-0.53
CCC(C)c1ccc(NC(=O)c2ccco2)cc1 (stereo not given),12*,-0.67*
CC1(C(=O)OCC(=O)Nc2cccc(S(=O)(=O)NC3=NCCCCC3)c2)CC1(Cl)Cl (stereo not given),0.36,-0.78
Cc1c(N)cc(C(=O)N2CCOCC2)cc1[N+](=O)[O-],0.79,-0.05
COc1ccc(-c2nn(CCC(=O)O)cc2/C=N/NC(N)=S)cc1,0.53,1.2
CCc1nnc(NS(=O)(=O)c2ccc(NC(=O)c3ccccc3)cc2)s1,0.1,0.28
Cc1cc(NC(=O)c2ccccc2)nc2c1c(=O)oc1ccccc12,0.22,-0.8
O=C(O)CSCC(=O)NCc1ccc(Cl)cc1,0.62,1.1

# 3 entries from above, ordered by molecular weight, smallest number first:
Compound,KCNQ2 pot,KCNQ2 pot baseline
C/C(=N\Nc1ccc([N+](=O)[O-])cc1)c1ccc2c(c1)OCO2,0.23,0.85
COc1ccc(-n2nnnc2SCC(=O)c2ccc(O)c(O)c2)cc1,3.3,-2.8
CCCCNC(=O)CNC(=S)N(Cc1cc(OC)c(OC)c(OC)c1)C1CCCC1,0.74,-0.12

# Full records, looked up by structure. Screens in order: KCNQ2 pot, KCNQ2 pot baseline
# `Cc1c(N)cc(C(=O)N2CCOCC2)cc1[N+](=O)[O-]` reads 0.79, -0.05
# `CN1Cc2c(N3CCOCC3)nc3sc(C#N)c(N)c3c2CC1(C)C` reads 0.32, 3.2

# Other records follow:
molecule	KCNQ2 pot	KCNQ2 pot baseline
Cc1nonc1C1CCCN1C(=O)c1cc(COc2ccc(F)cc2F)on1 (stereo not given)	1.3	-0.34
CCOc1ccc(C(O)Cc2nc3ccccc3n2C)cc1 (stereo not given)	0.67	-0.05
CCc1nnc2c3cnn(-c4ccccc4)c3ncn12	1	-2.2
O=C(CSc1nnc(CNC(=O)C23CC4CC(CC(C4)C2)C3)n1-c1ccc(F)cc1)Nc1ccc(F)cc1	1.9	1.8
CCOC(=O)N1CCN(C(=O)c2cn(C)c(=O)c3c2c2ccccc2n3C)CC1	0.89	-0.42
CCCCOC(=O)Nc1sc2nc(C)cc(C)c2c1-n1cccc1	0.28	-0.86
COc1cc(=O)n(C)c2c(OCC3OC(C)(C)OC3(C)C)cccc12 (stereo not given)	0.31	-2.5
Cc1ccc2sc(-c3ccc(NC(=O)/C=C\C(=O)O)cc3)nc2c1	1.5	0.43
CN1CC(=O)N(CC(=O)Nc2ccc(Cl)c(C(F)(F)F)c2)C1=O	0.02	0.01
Cc1ccc(-c2nnc(Nc3ccc(C(=O)N(C)C)cc3)c3ccccc23)cc1S(=O)(=O)NC(C)(C)CO	1.4	0.81
CCCn1nnnc1NC(=O)COc1ccc(Br)cc1	1	-0.67
Cc1ccccc1Cn1cc(S(=O)(=O)CC(=O)N2CCCCC2)c2ccccc21	1.7	-1.8
O=C(c1cccc(S(=O)(=O)N2CCOCC2)c1)N(Cc1nnc(-c2ccccc2Cl)o1)C1CC1	1.2	-1.6
O=C(COC(=O)c1cnccn1)NCc1ccccc1	1.1	0.06
Cc1ccc(OC(=O)c2cccnc2)cc1	1.1	-0.9
CCCCNC(=O)c1cccc(C(=O)NCCCC)c1	1.2	-2.4
CCOC(=O)Cc1c(C)nc2c(-c3ccc(Cl)cc3)c(C)[nH]n2c1=O	1.1	-0.03
O=C(Oc1coc(CSc2ncccn2)cc1=O)c1cccs1	1.5	-0.54
CC1CCCCN1C(=O)COC(=O)C1CCN(S(=O)(=O)c2c(Cl)cccc2Cl)CC1 (stereo not given)	0.11	0.35
CCOC(=O)CSc1nnc(NC(=O)C2CC(=O)N(c3ccc(F)cc3)C2)s1 (stereo not given)	0.2	0.86
COc1ccc(N(CC(=O)NCc2ccco2)S(=O)(=O)c2ccccc2)cc1	0.22	-1.4
CCn1c(=O)c2sccc2n2c(CCCC(=O)N3CCN(c4ccccn4)CC3)nnc12	0.83	-0.7
COc1ccc(/C(N)=N/OC(=O)C2CCC(=O)N2S(=O)(=O)c2ccc(C)cc2)cc1OC (stereo not given)	0.15	-0.45
Cc1cccc(N(NC(=O)C(C)(C)O)C(=O)c2ccccc2)c1	0.21	0.41
O=C(CCN1C(=O)c2ccccc2C1=O)Nc1cc(F)ccc1F	3.5	-2
Cc1ccc2oc(=O)c3cnn(CC(=O)N4CCCCCC4)c3c2c1	0.99	-1.1
CCOC(=O)N1CCN(C(=O)c2cn(CC)c3ccc(S(=O)(=O)N4CCCC4)cc3c2=O)CC1	0.19	0.05
O=S(=O)(c1cnc[nH]1)N1CCN(c2ccc(F)cc2)CC1	0.69	-0.05
CSc1nc(C)c2c(n1)N(c1ccc(C(F)(F)F)cc1)CC2	1.6	-0.63
COC(=O)c1ccc(Cn2nnc3ccccc3c2=O)o1	0.38	-0.46
Oc1c(Cl)cc(Cl)cc1C=Nc1ccc(N2CCOCC2)cc1	4.3	0.61
COCCN(C(=O)COC(=O)C1(C)CC1(Cl)Cl)c1c(N)n(Cc2ccccc2)c(=O)[nH]c1=O (stereo not given)	0.47	1.1
CSCCNC(=O)c1cccc(Cl)c1	1.6	-0.14
COc1ccc(C2NC(=O)N(CCCC(=O)O)C(C)=C2C(=O)OCc2ccccc2)cc1 (stereo not given)	1.6	-0.67
CSc1nc2c(c(=O)[nH]1)C(c1cccc(Cl)c1)CC(=O)N2 (stereo not given)	0.81	-0.58
Cc1onc(-c2c(Cl)cccc2Cl)c1C(=O)ONC(=O)c1ccccc1	0.73	-1.2
CCOP(=O)(/C(C#N)=C(/O)c1ccccc1)c1ccccc1 (stereo not given)	0.84	0.65
COCCCn1c(=O)c2ccccc2n(CC(=O)NCCC2=CCCCC2)c1=O	0.52	-0.37
O=C(Cc1ccc(S(=O)(=O)N2CCOCC2)s1)NCCC(c1ccccc1)c1ccccc1	0.88	-4.2
CCCS(=O)(=O)N1CCN(CCCc2ccccc2)CC1	0.06	-0.67
CCCOc1cccc(NC(=O)c2cc(C)oc2C)c1	3.2	0.68
O=S(=O)(N1CCCCC1)N1CCN(c2ccc(F)cc2)CC1	0.23	-1.5
CCc1cccc(C)c1N1C(=O)CC(C)(C)CC1=O	1.3	0.07
NS(=O)(=O)c1ccc(CCNC(=O)c2cc(-c3ccccc3)nc3ccccc23)cc1	0.86	0.5
O=C1CCCN1CC(O)CS(=O)(=O)c1ccccc1 (stereo not given)	0.33	-1.2
C=CCc1ccc(OCCN2CCc3ccccc3C2)c(OC)c1	0.84	0.19
CCCCC1=CC2=CC(=O)C(C)(OC(=O)CC)C(=O)C2=CN1Cc1ccc(OC)cc1 (stereo not given)	0.15	0.68
COc1cc2c3c(c1)C(C)=CC(C)(C)N3C(=O)C2=O	0.01	-0.66
O=C(NC1CCCCNC1=O)c1ccccc1 (stereo not given)	0.92	0.07
N=C1/C(=C\c2ccc(-c3cc(Cl)cc(Cl)c3)o2)C(=O)N=C2SC=C(c3ccccc3)N12	0.75	0.18
CCC(C)NC(=O)c1ccc2c(SCC(=O)O)c3c(nc2c1)CCCC3 (stereo not given)	0.27	-0.58
O=C(CN1CCOCC1)Nc1ccc(N2CCN(c3ccccc3)CC2)c(F)c1	0.22	-0.42
CN(Cc1ccccc1)c1nc(-c2ccc([N+](=O)[O-])cc2)nc2ccccc12	0.04	0.76
CCOC(=O)[C@H](CCc1ccccc1)N[C@H]1CCc2ccccc2N(CC(=O)O)C1=O	0.01	-1.8
CCOc1cc(C(c2c(C)[nH][nH]c2=O)c2c(C)[nH][nH]c2=O)ccc1O	0.49	0.01
CN(C)c1ccc(/C=C(/NC(=O)c2ccccc2Cl)C(=O)NCCN2CCOCC2)cc1	2.2	-2.9

# Screening data: PubChem, Johns Hopkins Ion Channel Center

# Not all compounds are listed, so the mix of outcomes need not match the whole.
